motility = Vibrio cholerae motility inhibitors, OD read-out (AID 588778); inhibition, %, or IC50 in µg/mL where a hit was titrated; Vibrio cholerae motility, OD read-out; higher % means a stronger effect; test concentration not given here; primary cut-off and reference of the scale not given here; strong numbers were not always called active; 10,000 tested, under 10 active; in the data active = confirmed in a dose series
motility viability = also measured in motility; calls as there; inhibition, %; measured here: bacterial viability at 10 ug/mL;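 higher means fewer living bacteria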
* hit, by the source's call; i = inactive.

SMILES | motility | motility viability
c1ccc(Cn2ncc3c2ncn2nc(CSc4nc5ccccc5s4)nc32)cc1 | -15% | -6
Cc1ccc(C(=O)N2CC(C)OC(C)C2)c(Cl)c1 (centres undefined) | -15% | -5
O=C(Nc1nonc1-c1nc2ccccc2[nH]1)c1ccccc1Cl | 6% | 0
CCOc1ccc(-c2csc(C3COc4ccccc4O3)n2)cc1 (centres undefined) | 2% | -5
O=C(c1ccco1)N1CCN(C(=O)N2c3ccccc3Sc3ccccc32)CC1 | 23% | 3
Nc1ccc(OC(F)(F)F)cc1C(=O)c1ccccc1 | -10% | -1
Fc1ccccc1COc1cccc(C(=S)N2CCOCC2)c1 | -5% | 7
COc1cc(CNCc2ccncc2)cc(Br)c1OCc1ccccc1F | 17% | 1
Cc1ccc(C(=O)CC(=O)c2ccco2)c(O)c1 | 41% | 6
N#CCC(=O)NNC(=S)Nc1ccc(F)cc1F | 29% | 3
CCOCCC(=O)N(CC)c1ccccc1 | -6% | -6
Cc1cc(NC(=O)CSc2nc3cc(Cl)ccc3o2)no1 | 7% | 27
COc1ccc2ccccc2c1C(O)c1cccs1 (centres undefined) | 31% | 4
Cc1cc(C)nc(SCc2nnc(SCC(=O)Nc3sc(C)c(C)c3C#N)n2-c2ccccc2)n1 | -6% | -2
O=C(Nc1ccc(N2CCN(c3c(F)c(F)c(F)c(F)c3F)CC2)cc1)c1cccc([N+](=O)[O-])c1 | -1% | 1
COc1cc(NC(=O)c2cccc(Br)c2)nc(OC)n1 | 17% | -2
O=C(c1ccc(Cl)cc1)c1ccc(CSc2nnc(-c3ccccc3)o2)o1 | -7% | -3
COCC(=O)NNC(=S)NC(C)c1ccccc1 (centres undefined) | 4% | 3
CC(C)(Oc1ccc(Cl)cc1)c1nc(-c2ccc(Br)cc2)no1 | 2% | 30
COc1ccc(C2C(C#N)=C(N)Oc3n[nH]c(-c4ccccc4)c32)cc1Cn1cc([N+](=O)[O-])cn1 (centres undefined) | 11% | 11
Cc1sc(NC(=O)c2ccccc2F)nc1C12CC3CC(CC(C3)C1)C2 | -12% | -5
COCCSc1nnc(NC(=O)Cc2c(F)cccc2Cl)s1 | -3% | -1
S=C(NC1CCCCC1)N1CCC2(CC1)OCCO2 | 17% | 8
O=C(c1ccco1)N1CCN(S(=O)(=O)c2ccc(Br)s2)CC1 | -7% | -6
CCc1cccc(CC)c1NC(=O)c1ccccc1Nc1ccccc1OC | -14% | -9

Of the compounds above, 5 have an aryl thioether with sulfur outside any ring:
SMILES | motility | motility viability
c1ccc(Cn2ncc3c2ncn2nc(CSc4nc5ccccc5s4)nc32)cc1 | -15% | -6
Cc1cc(NC(=O)CSc2nc3cc(Cl)ccc3o2)no1 | 7% | 27
Cc1cc(C)nc(SCc2nnc(SCC(=O)Nc3sc(C)c(C)c3C#N)n2-c2ccccc2)n1 | -6% | -2
O=C(c1ccc(Cl)cc1)c1ccc(CSc2nnc(-c3ccccc3)o2)o1 | -7% | -3
COCCSc1nnc(NC(=O)Cc2c(F)cccc2Cl)s1 | -3% | -1

Other compounds follow.
SMILES | motility | motility viability
O=C(CSc1ncn(-c2ccccc2)n1)Nc1nncs1 | -2% | 2
CCOc1ccc(-c2nn(-c3ccccc3)cc2C2C(C(=O)OC)=C(C)NC(C)=C2C(=O)OC)cc1[N+](=O)[O-] | -4% | -9
CCCCSc1nc(C)c(C(=O)Nc2ccccc2)s1 | -8% | -3
COC(=O)CCC(=O)NC(=S)Nc1cc(Cl)ccc1Cl | 10% | -2
CCC(CC)c1nnc(NC(=O)COc2ccccc2Br)s1 | -1% | -4
C/C=C(\C)c1nnc(NC(=O)C(C)C)s1 | 6% | 3
CCOC(=O)C1CCN(C(=O)c2ccccc2N(C)S(C)(=O)=O)CC1 | 6% | -2
COc1ccc2[nH]c(C)c(CCN3CCC(=O)C(C)C3C)c2c1 (centres undefined) | -3% | 1
COc1ccc(C(=O)Oc2ccc(C(=S)N3CCCC3)cc2)cc1OC | 2% | -1
CN1CCC2=C(C1)C(=O)NC1(CCCCC1)N2 | -7% | -8
COc1ccccc1N1CCN(C(=O)CS(=O)(=O)c2ccccc2)CC1 | 27% | 7
O=S(=O)(c1ccc(COc2ccc(I)cc2)cc1)N1CCOCC1 | -1% | -1
CN(C)CCNC(=O)Nc1ccc(Cl)c(Cl)c1 | 54% | 49
CC1=C(C(=O)Nc2ccccc2C)C(c2ccc(C)o2)N2C(=O)CSC2=N1 (centres undefined) | 6% | 22
COc1cc(NC(=S)N2CCN(Cc3ccc4c(c3)OCO4)CC2)c(OC)cc1Cl | 17% | 3
Cn1c(=O)c2cc(NC(=O)c3ccc(F)cc3)c(=O)oc2n(C)c1=O | 13% | 7
COc1ccc([N+](=O)[O-])cc1NC(=O)CSCc1c(Cl)cccc1Cl | -14% | -6
CS(=O)(=O)N(CC(=O)NCCSCc1ccco1)c1cc(Cl)c(Cl)cc1Cl | -4% | -1
CC(NC(=O)C(C)(C)Oc1ccc(Cl)cc1)C12CC3CC(CC(C3)C1)C2 (centres undefined) | 2% | 0
Cc1nc(SC(C(=O)O)c2ccccc2)cc(-c2ccccc2)n1 (centres undefined) | -1% | -7
O=c1c2ccccc2nc(/C=C/c2ccc([N+](=O)[O-])o2)n1-c1ccccc1C(F)(F)F | 12% | 28
COc1cc(C)c(Cl)c(C)c1S(=O)(=O)NCc1ccccc1 | 27% | 8
O=C(c1cccs1)N1CCN(S(=O)(=O)N2CCCCC2)CC1 | -10% | 0
COc1ccc(OC)c(C2C(C#N)=C(N)OC(c3ccccc3)=C2C#N)c1 (centres undefined) | -5% | -4
O=C(Nc1cccc2ncccc12)c1cccs1 | 5% | 8

Of the compounds above, three contain an NH in an aromatic ring.
SMILES | motility | motility viability
O=C(Nc1nonc1-c1nc2ccccc2[nH]1)c1ccccc1Cl | 6% | 0
COc1ccc(C2C(C#N)=C(N)Oc3n[nH]c(-c4ccccc4)c32)cc1Cn1cc([N+](=O)[O-])cn1 (centres undefined) | 11% | 11
COc1ccc2[nH]c(C)c(CCN3CCC(=O)C(C)C3C)c2c1 (centres undefined) | -3% | 1

The listing continues.
SMILES | motility | motility viability
CCc1nc2ccccc2n1Cc1cc(C)ccc1C | 21% | 8
Cc1ccc(N2CC(C(=O)Nc3ncc([N+](=O)[O-])s3)CC2=O)cc1 (centres undefined) | 16% | 3
Cc1cc(NC(=O)CCCSc2nc(-c3ccco3)cc(C(F)(F)F)n2)no1 | 7% | -1
Cc1cc(C)n(C(=O)c2c(F)c(F)c(F)c(F)c2F)n1 | -11% | -7
COc1ccc(C2=NOC(CN3C(=O)c4ccccc4S3(=O)=O)C2)cc1 (centres undefined) | -8% | -8
O=S(=O)(O)c1ccc2ccc(O)cc2c1 | 7% | 1
Cc1ccccc1CSc1nnc(NC(=O)Nc2ccccc2F)s1 | 3% | -13
CCOCCC(=O)NCC1CCCO1 (centres undefined) | 6% | -6
O=C(Nc1nccs1)c1ccc([N+](=O)[O-])cc1Cl | 4% | 0
COc1ccc2c(c1)CC1=C2CCC2(C)C1=CCC2OC(C)=O (centres undefined) | -2% | -2
N#CCCn1cc(C(=O)N2CCCCC2)c(-c2cccc(Br)c2)n1 | -4% | 1
Cc1cc(C)n(C(=O)C(C)N2C(=O)c3ccccc3C2=O)n1 (centres undefined) | 0% | -12
CCOC(=O)CC(O)(c1ccccc1)C(F)(F)C(F)F (centres undefined) | -7% | -3
O=c1c2c(-c3ccc(Br)cc3)csc2ncn1Cc1ccccc1F | 0% | -8
O=C(Nc1c(Cl)cccc1Cl)C1C2CC/C=C\CC/C=C/CCC21 (centres undefined) | -21% | -8
Brc1ccc2ncnc(NCc3ccco3)c2c1 | 9% | 7
Cc1cc2ncn(Cc3ccccc3F)c2cc1C | -10% | 2
COC(=O)c1ccc(C(=O)OC)c(NC(=O)CSCc2ccc(OC)cc2)c1 | 6% | -1
Cc1nc2ccccc2n1CC(=O)NC1CCCC1 | 1% | -6
CS(=O)(=O)N(CCc1ccccc1)CC(=O)NCc1ccccn1 | -27% | -5
CC(=O)OC(C(=O)N(C)c1nnc(-c2ccc(C)cc2)s1)c1ccccc1 (centres undefined) | 0% | -3
CC1CN(C(=O)c2cccc3c2-c2ccccc2C3=O)CC(C)O1 (centres undefined) | 7% | -5
O=C(CC1Sc2ccccc2NC1=O)NCc1ccc2c(c1)OCO2 (centres undefined) | -2% | -3
O=c1cc(-c2ccccc2)nc(N2CCc3ccccc32)[nH]1 | -17% | -5
Cc1c(C)n(Cc2ccccc2)c2ccc(C(=O)NNC(=S)NCc3ccco3)cc12 | -3% | -5

Carrying on.
SMILES | motility | motility viability
CCOC(=O)N1CCN(C(=O)C23CC4CC(CC(C4)C2)C3)CC1 | 4% | 0
O=C(Nc1ccc(Br)c2cccnc12)c1ccccc1Cl | -3% | -11
Cc1cccc(N2CCN(C(=O)COc3ccc(Cl)cc3Cl)CC2)c1C | 2% | 2
CCOc1cc(C(=S)N2CC(C)OC(C)C2)cc(I)c1OCC(=O)N1CCCC1 (centres undefined) | 11% | 6
O=C(CN1C(=O)c2ccccc2C1=O)Nc1ncc([N+](=O)[O-])s1 | -24% | -15
CCC(C)c1ccc(NC(=O)c2nn(C)cc2Cl)cc1 (centres undefined) | -7% | -5
Cc1ccc(S(=O)(=O)C(C(=O)c2ccccc2)c2ccc(Cl)cc2)cc1 (centres undefined) | -15% | -6
COc1cc(CNn2cn[nH]c2=S)ccc1OCC(=O)NC(C)(C)C | 7% | 1
Fc1cccc(CN2CCC(N3CCCC3)CC2)c1 | -1% | -1
COc1ccccc1OCC#CCN1CCCC(C)C1 (centres undefined) | 18% | 28
O=C(Nc1cccc(Cl)c1Cl)N1CCC2(CC1)OCCO2 | 9% | 4
Cc1c(NC(=O)CN(c2cccc(Cl)c2Cl)S(C)(=O)=O)cccc1[N+](=O)[O-] | 14% | 2
CCOC(=O)C1C2C=CC(C3CC23)C1C(=O)OCc1ccccc1Cl (centres undefined) | 12% | 2
Cc1ccc(S(=O)(=O)N(C)CCCC(=O)n2cnc3ccccc32)cc1 | 24% | 10
O=C(c1ccco1)N1CCN(Cc2nnc(-c3ccccc3)o2)CC1 | -1% | -5
CCOC(=O)c1ccc(NC(=S)NNC(=S)NC2CCCCC2)cc1 | 9% | 0
O=C(O)CC(NC(=O)OCc1ccccc1)c1ccccc1 (centres undefined) | 0% | -2
O=C(CSCc1c(F)cccc1Cl)NCC1CCCO1 (centres undefined) | -3% | -2
O=C(c1cccc2ccccc12)N1CCN(CC2CC=CCC2)CC1 (centres undefined) | 28% | 4
C1CCC(OCCN2CCN(CCOC3CCCCC3)CC2)CC1 | 7% | 6
COc1ccc(-c2ccc(CCC(=O)O)n2CCc2ccccc2)cc1 | 5% | -1
O=C(O)CCCC(=O)Nc1cc([N+](=O)[O-])ccc1O | -8% | -4
Cc1cc(Cl)ccc1OCCNS(C)(=O)=O | -12% | -9
O=C(Nc1ccc(S(=O)(=O)Nc2ccccn2)cc1)c1cc2ccccc2oc1=O | -12% | -10
Cn1nc([N+](=O)[O-])nc1Sc1cccc2ccccc12 | 2% | -4

Continued:
SMILES | motility | motility viability
O=C(O)CCNc1c(C(=O)O)cnc2ccccc12 | -3% | -1
CCOC(=O)c1c(NC(=S)NC(=O)c2ccccc2I)sc(C)c1C | -10% | -3
Cc1ccc(C)c(-c2csc(NC(=O)c3c(F)c(F)c(F)c(F)c3F)c2C#N)c1 | 17% | 0
CCCc1cc(=O)[nH]c(SCC(=O)NCc2ccc3c(c2)OCO3)n1 | 7% | 6
Fc1ccc(CCNC(=S)NCC2CCCO2)cc1 (centres undefined) | 17% | 10
CC(=O)Nc1ccc2nc(NC(=O)C(C)Oc3ccc(Cl)cc3Cl)oc2c1 (centres undefined) | -4% | -5
COc1ccc(CNc2ccccc2[N+](=O)[O-])cc1 | 19% | -1
COc1ccccc1NC(=O)c1cc(C(N)=O)c(SCC(=O)c2ccccc2)nc1N | -10% | -3
O=C(Nc1cccnc1)C1(c2ccc(Cl)cc2)CCCC1 | -4% | 2
c1ccc(CCCN2CCC(N3CCN(c4ccccc4)CC3)CC2)cc1 | 16% | 1
O=C(CSc1nc2ccccc2s1)N=C1NC(=O)CS1 | 2% | -7
COc1ccc(Cl)cc1NC(=S)Nc1cc(C(=O)OC(C)C)cc(C(=O)OC(C)C)c1 | -8% | -7
O=C(NCc1ccccn1)C1CCN(Cc2cccc(OCc3ccccc3)c2)CC1 | 14% | -1
CC(=O)NC(=S)NNC(=O)c1ccc(-c2ccccc2)cc1 | i | 46
CCOCCCNC(=O)Nc1ccc(C)cc1 | -7% | 0
CCOC(=O)CSc1nc2c(c(=O)n1-c1ccccc1)C(C)(CC)Cc1ccccc1-2 (centres undefined) | -13% | -6
Cc1cccc(CSc2nc3ccccn3n2)c1 | -5% | -4
COc1ccc(Nc2nc(N)nc(CSc3nc(C)cc(C)n3)n2)cc1 | -1% | -2
CC(C)(C)c1cc(C(=O)Nc2nccs2)ccn1 | 18% | 4
Cn1c(C23CC4CC(CC(C4)C2)C3)n[nH]c1=S | 15% | 5
Cc1nc2ccc(NC(=S)N3CCN(c4ccccn4)CC3)cc2nc1C | -31% | -10
O=C(O)CCC(=O)N(c1ccccc1)c1ccccc1 | 3% | 0
S=C(NCc1ccc(Cl)cc1)N1CCC2(CC1)OCCO2 | -10% | -4

Full records from above:
Fc1ccc(CCNC(=S)NCC2CCCO2)cc1 (centres undefined) across the screens: motility: 17%; motility viability: 10
S=C(NCc1ccc(Cl)cc1)N1CCC2(CC1)OCCO2 across the screens: motility: -10%; motility viability: -4

A portion of the library; count on the stated rates, not on these rows.
